High-throughput results deposited in PubChem BioAssay by ICCB-Longwood Screening Facility, Harvard Medical School.
HCMV UL50-53 inh – disrupts HCMV UL50-UL53 complex binding; inhibition, % (test concentration not listed); HTRF UL50-UL53 interaction, normalized percent inhibition; 190,000 compounds, 0.15% hits; AID 1918969;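 active means both replicates at 50% or more, plus weaker picks with an unusually low signal ratio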;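 further: stock transfer was 100 nL into about 20 µL; 0% = negative control wells and 100% = wells with untagged competitor protein; inactives centre near -12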
GIV Gai3 FP – inhibitors of GIV GBA-motif binding to rat Galpha-i3. percent of control (FP), % (test concentration not listed). P08753. Galpha-i3/FITC-GIV peptide fluorescence polarization, 90 min; stronger effect = lower value; scaled: aluminum fluoride 0%, vehicle 100%. AID 1224905. 210,000 compounds, 0.42% hits;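 active means replicate mean at 85% of control or lower, very high polarization wells dropped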;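 further: wells of about 15 µL received 100 nL stock; the first replicate is given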
Target sequence (P08753 whole entry, looked up): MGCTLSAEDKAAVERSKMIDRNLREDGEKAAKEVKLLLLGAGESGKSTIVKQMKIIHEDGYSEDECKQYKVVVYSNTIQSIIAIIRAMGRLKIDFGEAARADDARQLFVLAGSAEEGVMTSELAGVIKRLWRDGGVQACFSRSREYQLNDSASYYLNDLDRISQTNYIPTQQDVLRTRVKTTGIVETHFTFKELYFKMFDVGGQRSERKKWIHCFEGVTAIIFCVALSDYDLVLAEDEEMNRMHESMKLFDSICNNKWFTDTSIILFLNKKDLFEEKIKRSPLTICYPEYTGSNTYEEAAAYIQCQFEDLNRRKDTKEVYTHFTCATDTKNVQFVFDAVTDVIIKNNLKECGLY
Sa growth inh – inhibitors of Staphylococcus aureus growth at 42 °C; AID 720641; S. aureus RN4220 growth, OD600, 20 h; stronger effect = lower value; 170,000 compounds, 0.53% hits; relative growth, % (no concentration beside the values);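 active means growth at 42 °C up to 50% and 20 or more points under that at 30 °C, or under 10% at both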;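 further: 300 nL library stock went into each well; scaled to the means of positive and negative controls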
Sa growth inh second temp – second read-out of Sa growth inh, no call of its own (marks repeat the call); relative growth, %; measured here: growth at 30 °C;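 optical density after 20 h as mean of two plates; 100% = untreated growth and lower means inhibition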
Active calls of the source: *; . = not tested or not shown; & = joins results of further samples.

1. O=C(CN1C(=O)c2ccccc2C1=O)Nc1ccc(S(=O)(=O)NC2=NCCCCC2)cc1
2. O=C1C2C3C=CC(C2C(=O)N1c1nccs1)C1C(=O)N(c2nccs2)C(=O)C31 (stereo not drawn)
3. Cc1ccc(-n2nc(N3CCN(C(=O)c4cc5cc(Cl)ccc5[nH]4)CC3)ccc2=O)cc1C
4. CN1C(=O)c2ccccc2C1O (stereo not drawn)
5. CCn1ccc2cc(S(=O)(=O)N3CCCN(C(=O)Nc4ccc(C)c(F)c4)CC3)ccc21

compound no.	1	2	3	4	5
HCMV UL50-53 inh	-6	9	-4	-9	.
GIV Gai3 FP	.	103	108	.	99
Sa growth inh	91	.	.	92	91
Sa growth inh second temp	105	.	.	83	90

6. CCCNC(=O)Nc1ccc(-c2noc(-c3sccc3C)n2)cc1
7. Cc1cc(OC(C)c2nc(-c3ccccn3)no2)ccc1Cl (stereo not drawn)
8. COC(=O)c1nn(-c2ccccc2)c2oc(=O)cc(C)c12
9. Cc1cc(S(=O)(=O)NCC(c2ccco2)S(=O)(=O)c2cccs2)ccc1F (stereo not drawn)
10. O=C(NCc1ccccc1Cl)c1ccc(Nc2nc3ccccc3n3nnnc23)cc1

compound no.	6	7	8	9	10
HCMV UL50-53 inh	-25	-16	-34	.	-11
GIV Gai3 FP	114	101	103	101	114
Sa growth inh	.	.	102	111	116
Sa growth inh second temp	.	.	88	99	93

11. CC(C)CN1CCc2nc(N3CCN(C)CC3)ncc2C1
12. COC(=O)c1cccc(COC(=O)CCc2nc3ccccc3[nH]c2=O)c1
13. COC(=O)CN(c1cccc(C)c1)S(=O)(=O)c1ccccc1
14. O=C(N1CCN(c2ccc(F)cc2)CC1)N1c2ccccc2Sc2ccccc21
15. COc1ccc(S(=O)(=O)N2CCCCC2)cc1-n1c(N)c(C#N)c2nc3ccccc3nc21

compound no.	11	12	13	14	15
HCMV UL50-53 inh	.	-23	-10	-6	1
GIV Gai3 FP	104	104	99	93	.
Sa growth inh	92	96	96	.	81
Sa growth inh second temp	94	88	89	.	88

16. CCN(CC)CCCNC(=O)CSc1nc2nc(C)c(Cc3c(F)cccc3Cl)c(C)n2n1
17. CSc1ccccc1NC(=O)c1noc2c1CC(C(C)(C)C)CC2 (stereo not drawn)
18. CCCOc1ccc(CN(C(=O)Cc2coc3ccc(CC)cc23)C2CCS(=O)(=O)C2)cc1 (stereo not drawn)
19. O=C(Nc1ccccc1)OCC(F)(F)F
20. CCc1ccccc1NC(=O)Cn1c(=O)n(-c2cccc(C)c2)c(=O)c2c1c1cc(OC)ccc1n2C

compound no.	16	17	18	19	20
HCMV UL50-53 inh	2	-8	-2	14	.
GIV Gai3 FP	107	103	111	.	107
Sa growth inh	103	72	105	96	132
Sa growth inh second temp	111	82	80	97	92

21. CCOc1cccc(C(=O)Oc2cccc(-n3cnnn3)c2)c1
22. CNC(=O)Cc1ccc(-n2c(=O)c3ccccc3n(CC(=O)Nc3ccc(Cl)cc3F)c2=O)cc1
23. Cc1ccc(NC(=O)COC(=O)c2cccc(C(F)(F)F)c2)cc1C
24. CCSc1nsc(NC(=O)c2ccccc2OC)n1
25. Cc1ccc(CN2C(=O)C3CCCCC3C2=O)cc1S(=O)(=O)NCc1ccccn1 (stereo not drawn)

compound no.	21	22	23	24	25
HCMV UL50-53 inh	-20	-5	-16	-14	-6
GIV Gai3 FP	107	105	.	99	105
Sa growth inh	.	.	110	.	.
Sa growth inh second temp	.	.	85	.	.

26. O=C(c1c(Cl)nc2sccn12)N1CCN(c2cccc(Cl)c2)CC1
27. CC(C)N(C(=O)Cn1cc(S(=O)(=O)Cc2ccc(Cl)cc2)c2ccccc21)C(C)C
28. CCC(C)NC(=O)c1csc2c1CCCCC2 (stereo not drawn)
29. O=C(O)/C(=C\c1ccccc1)c1cccs1
30. Cc1cc(=O)n2[nH]c(CN(C(=O)C(C)C)c3ccc(Cl)cc3)nc2n1

compound no.	26	27	28	29	30
HCMV UL50-53 inh	-1	.	-6	-32	13
GIV Gai3 FP	.	106	107	.	106
Sa growth inh	112	118	106	110	.
Sa growth inh second temp	95	91	92	90	.

31. O=C(c1ccn(C(=O)c2ccc(Cl)cc2Cl)n1)N1CCCCC1
32. COC(=O)c1cc(OC(=O)c2nc(-c3ccccc3)oc2C)cc(C(=O)OC)c1
33. O=C(/C=C/c1ccc2c(c1)OCO2)NCc1ccccc1
34. COc1ccc(NC(=O)COC(=O)Cc2cccc(C(F)(F)F)c2)cc1
35. Cc1nnc(Sc2nc3ccc(Cl)cc3s2)n1-c1ccc2c(c1)OCCO2

compound no.	31	32	33	34	35
HCMV UL50-53 inh	.	-25	.	-13	-11
GIV Gai3 FP	106	.	101	.	97
Sa growth inh	101	105	83	115	105
Sa growth inh second temp	88	81	96	94	91

36. CCOC(=O)Cc1ccc(NC(=O)Nc2ccccc2OCc2cc(=O)n3ccccc3n2)cc1
37. CCCCc1ccc2nc(NC(=O)c3ccco3)sc2c1
38. CSc1ccc(Cl)c(C(=O)OC(C)C(N)=O)c1 (stereo not drawn)
39. CCCCCC1CC(CC(C)C(=O)Nc2nncs2)C(=O)O1 (stereo not drawn)
40. CCOC(=O)c1c(C)[nH]c(C(=O)O)c1C

compound no.	36	37	38	39	40
HCMV UL50-53 inh	.	11	-32	-4	-6
GIV Gai3 FP	101	106	.	109	.
Sa growth inh	87	143	91	88	80
Sa growth inh second temp	75	107	87	116	85

An excerpt from above in order of formula weight, lowest first.
37. CCCCc1ccc2nc(NC(=O)c3ccco3)sc2c1
35. Cc1nnc(Sc2nc3ccc(Cl)cc3s2)n1-c1ccc2c(c1)OCCO2
36. CCOC(=O)Cc1ccc(NC(=O)Nc2ccccc2OCc2cc(=O)n3ccccc3n2)cc1

compound no.	37	35	36
HCMV UL50-53 inh	11	-11	.
GIV Gai3 FP	106	97	101
Sa growth inh	143	105	87
Sa growth inh second temp	107	91	75

Another view of some results above.
Every second line gives: HCMV UL50-53 inh	GIV Gai3 FP	Sa growth inh	Sa growth inh second temp
[8] COC(=O)c1nn(-c2ccccc2)c2oc(=O)cc(C)c12
  -34	103	102	88
[40] CCOC(=O)c1c(C)[nH]c(C(=O)O)c1C
  -6	.	80	85

(next part)
41. O=C(CC1CC2CCC1C2)NCc1cccs1 (stereo not drawn)
42. Cc1n[nH]c(=O)c2c(NC(=O)COC(=O)/C=C/c3ccc4c(c3)OCO4)oc(C)c12
43. O=C(NC1CCCCC1)N1c2ccccc2CCc2ccccc21
44. CCN(CC)S(=O)(=O)c1ccc(S(=O)(=O)Nc2cc(Cl)ccc2OC)cc1
45. Cc1cc(-c2nnc3sc(Cc4ccccc4)nn23)n[nH]1

compound no.	41	42	43	44	45
HCMV UL50-53 inh	-14	-51	.	-9	-9
GIV Gai3 FP	.	.	92	.	106
Sa growth inh	99	95	98	99	.
Sa growth inh second temp	85	92	81	93	.

46. Cc1oc2ncn(C)c(=O)c2c1C(=O)N1CCc2ccccc21
47. Oc1ccccc1CNC1CCCCC1
48. CCOC(=O)c1cccc(NC(=O)NCc2cccn2Cc2ccccc2)c1
49. Cc1cc(=O)[nH]c(SCc2cc(=O)n3nc(SCC(C)C)sc3n2)n1
50. Cc1cccc(-c2c3c(=O)n(C)c(=O)n(C)c3cn2-c2ccccn2)c1

compound no.	46	47	48	49	50
HCMV UL50-53 inh	-40	-14	.	-3	-37
GIV Gai3 FP	103	103	111	112	108
Sa growth inh	109	107	106	91	.
Sa growth inh second temp	89	108	104	68	.

51. Cc1ccccc1OCC(=O)NCCc1csc(-c2ccccc2)n1
52. CCOC(=O)C1CCN(C(=O)CSc2n[nH]c(-c3ccccc3)n2)CC1
53. O=C(CNC(=O)C12CC3CC(CC(C3)C1)C2)N1CCN(S(=O)(=O)c2ccc(Cl)cc2)CC1
54. CC(C)(C)c1ccc(OCCn2c(=O)oc3ccccc32)cc1
55. O=S(=O)(NCc1ccccc1)c1ccc(S(=O)(=O)N2CCCCCC2)cc1

compound no.	51	52	53	54	55
HCMV UL50-53 inh	-23	.	-28	4	-27
GIV Gai3 FP	94	108	.	102	104
Sa growth inh	.	104	100	91	116
Sa growth inh second temp	.	86	95	90	92

5 compounds picked at random from those above, as already listed:
30. Cc1cc(=O)n2[nH]c(CN(C(=O)C(C)C)c3ccc(Cl)cc3)nc2n1
42. Cc1n[nH]c(=O)c2c(NC(=O)COC(=O)/C=C/c3ccc4c(c3)OCO4)oc(C)c12
35. Cc1nnc(Sc2nc3ccc(Cl)cc3s2)n1-c1ccc2c(c1)OCCO2
52. CCOC(=O)C1CCN(C(=O)CSc2n[nH]c(-c3ccccc3)n2)CC1
17. CSc1ccccc1NC(=O)c1noc2c1CC(C(C)(C)C)CC2 (stereo not drawn)

compound no.	30	42	35	52	17
HCMV UL50-53 inh	13	-51	-11	.	-8
GIV Gai3 FP	106	.	97	108	103
Sa growth inh	.	95	105	104	72
Sa growth inh second temp	.	92	91	86	82

(next part)
56. C=CCN1C(=O)CN=C1Nc1ccccc1
57. COc1cc(Br)c(C2C(C(=O)OCCOc3ccccc3)=C(C)NC3=C2C(=O)CCC3)cc1OC (stereo not drawn)
58. CCOC(=O)c1cn[nH]c1S(=O)(=O)N1CCCCC1
59. CC1(C)C(=O)N(CC(=O)Nc2c3c(nc4ccccc24)CCCC3)c2ccccc21
60. Cc1ccc(-c2csc3ncnc(NCCC(=O)O)c23)cc1

compound no.	56	57	58	59	60
HCMV UL50-53 inh	-27	-34	-25	-22	.
GIV Gai3 FP	100	96	101	99	104
Sa growth inh	118	.	.	.	117
Sa growth inh second temp	80	.	.	.	76

61. Cc1ccc(NC(=O)CC2SC(=O)NC2=O)c(C)c1 (stereo not drawn)
62. Cc1cc(=O)oc2c3c(ccc12)OCN(CCc1ccccc1)C3
63. CCC1=Nc2cc(C(=O)NC3CCCC3)ccc2Sc2ccc(Cl)cc21
64. Cc1ccc(NC(=O)CSC2=C(C#N)C(c3ccc([N+](=O)[O-])cc3)CC(=O)N2)c(C)c1 (stereo not drawn)
65. CCCS(=O)(=O)N1CCn2cccc2C1c1ccc(Cl)cc1Cl (stereo not drawn)

compound no.	61	62	63	64	65
HCMV UL50-53 inh	-6	-65	-15	7	-42
GIV Gai3 FP	108	106	103	108	102
Sa growth inh	.	84	120	.	98
Sa growth inh second temp	.	74	89	.	83

66. Cc1cccc(-c2n[nH]c(=S)n2CC(N)=O)c1
67. O=C(CCn1nnc2ccccc21)N1CCC(O)(c2cccc(F)c2)CC1
68. O=C(OCCN1CCCCC1)c1ccccc1Br
69. O=C(Cn1c(C(=O)NCc2ccco2)cc2sccc21)c1ccccc1
70. COc1cc(C2CC(=O)NC(SCC(=O)Nc3cc(C)ccc3C)=C2C#N)ccc1O (stereo not drawn)

compound no.	66	67	68	69	70
HCMV UL50-53 inh	15	0	-21	6	-4
GIV Gai3 FP	.	99	102	104	106
Sa growth inh	142	112	100	103	.
Sa growth inh second temp	94	92	82	77	.

71. COc1ccc2[nH]c3c(=O)n(C)c(SCc4ccccc4C)nc3c2c1
72. CC1CCC(NC(=O)C2c3cccn3CC(=O)N2c2cccc(F)c2)CC1 (stereo not drawn)
73. COc1ccc(Cn2c(SCC(=O)c3ccccc3)nc3ccc(N4CCOCC4)cc3c2=O)cc1
74. CC(C)N1C(=O)CSC1c1ccccc1 (stereo not drawn)
75. O=C(CCCSc1nc2ccccc2s1)N1CCN(c2ncccn2)CC1
76. COC(=O)c1ccccc1NC(=O)c1cc(=O)c2ccc(C)c(C)c2o1
77. Cc1cc(C)n(C(=O)c2cccs2)n1
78. c1ccc2c(c1)NC(c1ccc3c(c1)OCCO3)n1cccc1-2 (stereo not drawn)

compound no.	71	72	73	74	75	76	77	78
HCMV UL50-53 inh	-10	-8&-19	0	0	-5	-23	-2	-14
GIV Gai3 FP	100	102&100	102	104	.	103	107	111
Sa growth inh	.	106	99	102	103	101	97	77
Sa growth inh second temp	.	86	88	105	85	80	92	63
